Bioassay records as filed in PubChem BioAssay.
WNV protease inh – inhibitors of West Nile virus NS2B-NS3 protease; z-score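 (tested at a level between 10 and 100 µM)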; 65,000 compounds, 0.18% hits; AID 577; WNV NS2B-NS3 protease, fluorogenic substrate Ex360/Em465; hits give low values; P06935;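 active = z-score at -3 or under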;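 note: score is relative to mean and spread of the compound wells of a plate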
Target sequence (P06935 1371-1501 limits assumed): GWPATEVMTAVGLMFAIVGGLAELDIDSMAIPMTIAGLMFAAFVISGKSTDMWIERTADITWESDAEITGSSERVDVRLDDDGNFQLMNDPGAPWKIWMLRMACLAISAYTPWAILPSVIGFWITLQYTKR
Target sequence (P06935 1502-1679 limits assumed): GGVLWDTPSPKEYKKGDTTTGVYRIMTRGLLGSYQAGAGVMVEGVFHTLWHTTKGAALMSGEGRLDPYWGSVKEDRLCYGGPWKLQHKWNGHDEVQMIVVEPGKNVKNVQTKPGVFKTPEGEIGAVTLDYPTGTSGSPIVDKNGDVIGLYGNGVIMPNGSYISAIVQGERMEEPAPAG
Hsc70 ATP site – small molecules displacing fluorescent ligand from Hsc70 – biochemical, fluorescence polarization, primary screen (AID 568); Hsc70 fluorescence polarization, probe displacement; higher % means a stronger effect; strong numbers were not always called active; displacement, % at 20 µM; hits with a dose series show IC50 in µM; 83,000 tested, under 10 active;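 active = displacement above 50% without optical interference and an IC50 on retest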;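 note: ATPase domain with a fluorescein-tagged ATP probe; 0% = vehicle and 100% = excess ADP; read after one hour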
MT1-MMP reporter – inhibitors of MT1-MMP promoter transcription, cell-based, luciferase reporter, luminescence (AID 618); MT1-MMP promoter luciferase reporter cells, luminescence; calls from a first round at 10 µM; hits with a dose series show EC50 in µM; 87,000 compounds, 0.62% hits;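 active = over half of the reporter light lost at 10 µM or EC50 under 50 µM; inactive = the rest and hits that failed the dose series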;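 note: actives suppress MT1-MMP promoter-driven transcription so potencies describe inhibitors; HT1080 fibrosarcoma cells; overnight exposure; toxic or luciferase-blocking compounds were not removed from the actives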
* marks the source's active call; other numbers are inactive results; i = inactive; / = not tested or not shown.

Below each compound: MT1-MMP reporter, WNV protease inh, Hsc70 ATP site
- Cc1ccc(CCNC(=O)C2CCCN(S(=O)(=O)c3c(C)noc3/C=C/N(C)C)C2)cc1 (stereo unspecified)
 : i, 2.8, -5.2%
- O=C1CCC(=O)N1CC(=O)N1c2ccccc2Sc2ccccc21
 : i, 2.96, -5.6%
- CCC(C)(C(=O)NC1CCCC1)N(C(=O)c1ccccn1)c1ccccc1 (stereo unspecified)
 : i, -0.15, 1.0%
- CS(=O)(=O)N1CCN(c2ccccc2NC(=O)c2cccs2)CC1
 : i, 0.27, 0.9%
- CCn1c(=Nc2ccc(N3CCOCC3)cc2)ccc2ccccc21
 : i, -0.34, 2.2%
- COc1ccc(-c2cc(N3CCCC3)n3ncnc3n2)cc1
 : i, -0.08, 2.9%
- O=c1[nH]c(SCCOc2ccccc2)nc2ccccc12
 : i, -0.58, -3.6%
- CCOc1ccc(NC(=O)CSc2nnc(Cc3cccn3C)n2-c2ccc(F)cc2)cc1
 : i, 2.56, 1.0%
- Cn1c(=O)c2c(nc(CN3CCOCC3)n2Cc2ccccc2)n(C)c1=O
 : i, -1.1, -4.7%
- O=C(CSC1=NCCS1)Nc1nc(-c2ccccc2)cs1
 : i, 0.42, -1.1%
- CCOc1cc2[nH]c(=S)n(CC3CCCN3CC)c(=O)c2cc1OCC (stereo unspecified)
 : i, 0.12, -4.3%
- CCOc1ccc(OCC)c(Nc2cc(C)nc3ncnn23)c1
 : i, -0.79, 0.0%
- OCCNc1nc(SCc2ccccc2)nc2sc3c(c12)CCC3
 : i, /, 0.6%
- COc1cc(NC(=O)C2CCN(S(=O)(=O)c3ccc(Cl)cc3)CC2)ccc1-n1cnnn1
 : i, -0.42, 2.6%
- CC(C)(C)NC(=O)Cn1c(SCC(=O)NC2CCCCC2)nc2ccccc21
 : i, 0.78, -0.1%
- COc1ccccc1C1Nc2cccc3cccc(c23)N1
 : i, /, -0.5%
- COC(=O)c1cc(S(=O)(=O)N2CCOCC2)ccc1Sc1ccccc1N
 : i, -0.72, -1.6%
- CCn1c(CNc2ccccc2Cl)nnc1SCC(=O)NCc1ccccc1
 : i, -0.25, 3.1%
- Cc1cc(C)nc(SCCn2c(N3CCCCC3)nc3c2c(=O)n(C)c(=O)n3C)n1
 : i, -1.3, 10.1%
- CCOC(=O)N1CCC(NC(=O)c2ccc(CS(=O)(=O)c3c(Cl)cccc3Cl)o2)CC1
 : i, -0.09, -0.8%
- CCc1ccc2oc(=O)cc(CN(C)Cc3ccccc3)c2c1
 : i, 0.32, -3.5%
- O=C(NCCc1cn2ccccc2n1)C1CCCCC1
 : i, -2.13, 1.6%
- COc1cc(OC)c(C(=O)COc2ncnc3ccccc23)c(OC)c1
 : i, 0.47, 0.0%
- Nc1cc(-c2nc3ncccc3o2)ccc1Cl
 : i, /, 1.3%
- CCN(CC)C(=O)CSc1nc(O)cc(=O)n1C
 : i, 0.11, -3.9%
- Cn1c(=O)oc2cc(S(=O)(=O)N3CCC4(CC3)OCCO4)ccc21
 : i, -0.55, -8.2%
- COc1ccc(-c2csc(Cc3nnc4n3CCCCC4)n2)cc1
 : i, 0.93, -1.4%
- Cn1c(SCc2cc(=O)[nH]c3ccccc23)nnc1-c1ccc(Br)cc1
 : i, /, 5.0%
- Cc1noc(C)c1C(=O)NCc1cccs1
 : i, -0.98, 3.0%
- Cc1cc(OCCCCCNCCO)cc(C)c1Cl
 : i, -0.59, 6.1%
- CCOC(=O)N1CCC(NC(=O)C2CCN(S(=O)(=O)N3CCCC3)CC2)CC1
 : i, -0.12, 4.7%
- COc1ccc(C(=O)N2CCN(C(C)=O)CC2)cc1S(=O)(=O)NCc1ccc(Cl)cc1
 : i, 0.49, 2.7%
- CC(C)c1ccc(NC(=O)C2CCN(S(C)(=O)=O)CC2)cc1
 : i, 0.1, -7.8%
- Oc1ccc(-c2n[nH]c(=S)n2Cc2ccccc2)cc1
 : i, 1.86, 0.4%
- Clc1ccc(SCCCCn2ccnc2)cc1
 : i, 0.24, 0.9%
- COc1cccc(C(=O)NCCn2ccc3ccccc32)c1
 : i, -0.24, -1.9%
- CCSc1nnc(NC(=O)CSc2nc3c(c(=O)n2CCOC)SC(C)C3)s1 (stereo unspecified)
 : i, -0.52, -0.4%
- COC(=O)c1[nH]c2ccc(Br)cc2c1NC(=O)CN1CCN(C2CCCCC2)CC1
 : i, 0.07, -0.3%
- O/N=C1\CC2(Cc3nonc31)OCCO2
 : i, -0.28, 3.8%
- Cn1c(=O)c2c(nc(CN3CCc4ccccc4C3)n2Cc2ccccc2)n(C)c1=O
 : i, -1.04, -1.9%
- Cc1nc(N[C@@H](Cc2c[nH]c3ccccc23)C(=O)O)c2oc3ccccc3c2n1
 : i, -0.87, 6.0%
- CCOC(=O)N1CCN(C(=O)c2c(O)c3cccc4c3n(c2=O)CC4)CC1
 : i, -0.74, 0.3%
- Cc1cc2nc(C)n(CCCNC(=O)Nc3ccc(C#N)cc3)c2cc1C
 : i, 0.00884, -1.4%
- CCCn1nc(C(=O)N2CC(=O)Nc3ccccc32)c2ccccc2c1=O
 : i, -0.23, -3.9%
- COc1ccccc1NC(=O)CSc1ncn[nH]1
 : i, 1.32, 0.4%
- CCOC(=O)[C@@H]1CCNC[C@@H]1c1ccccc1
 : i, -0.19, -2.3%
- Cc1ccc(S(=O)(=O)N2CCC[C@H]2C(=O)OC(C)C(=O)Nc2ncc(Cl)cc2Cl)cc1 (stereo partly specified)
 : i, /, -4.0%
- C#CCOc1ccc(Br)cc1/C=N/O
 : i, /, -3.1%
- COc1ccc(C(=O)n2nc(-c3ccc(Cl)cc3)nc2N)cc1OC
 : i, -0.51, -6.3%
- CC(C)C(NS(=O)(=O)c1ccc2c(c1)oc(=O)n2C)C(=O)N1CCN(Cc2ccccc2)CC1 (stereo unspecified)
 : i, 0.24, 3.2%
- COC(=O)CSc1nc2cc(C)cc(C)c2cc1C#N
 : i, 0.7, -2.9%
- CCCC(=O)c1c(C)c2ccccc2n1C
 : i, 0.25, 7.0%
- CN1CCN(C(=O)c2cc(-c3ccccc3)on2)CC1
 : i, -0.15, -3.6%
- COc1ccc(S(=O)(=O)Nc2nc(C(F)(F)F)cs2)cc1
 : i, -0.96, 1.7%
- Cc1ccc(Nc2c3c(nc4ncnn24)CCC3)cc1
 : i, -0.51, -1.3%
- COc1n[nH]c2nncnc12
 : i, -1.26, -8.4%
- O=S(=O)(c1ccccc1)N1CCC(n2nnc3cc(F)ccc32)CC1
 : i, /, 5.1%
- CC(=O)Nc1ccc(CN2CCN(c3cccc(C(F)(F)F)c3)CC2)cc1
 : i, 2.86, 5.6%
- Cc1ccc2c(CC(=O)Nc3sccc3C(N)=O)coc2c1
 : i, -1.51, -1.0%
- CCCNC(=O)c1ccc(CNc2c(N3CCC(C(=O)OCC)CC3)c(=O)c2=O)cc1
 : i, -0.27, 2.6%

(more compounds)
Below each compound: MT1-MMP reporter, WNV protease inh, Hsc70 ATP site
- COCCNC(=O)c1nn2cccnc2c1Cl
 : i, /, 4.5%
- CCOc1ccc(NC(=O)CN(c2cccc(C(F)(F)F)c2)S(C)(=O)=O)cc1
 : i, /, -0.7%
- N#CC1=C(SCC(=O)Nc2cccc3cccnc23)NC(=O)C(C#N)C12CCCCC2 (stereo unspecified)
 : i, -0.16, 2.9%
- COc1ccc2oc(C(=O)c3ccccc3)c(N)c2c1
 : i, /, -0.2%
- CCCn1c(C)nc2c(c1=O)c1nc3ccccc3nc1n2-c1ccc2c(c1)OCCO2
 : i, 0.97, 65.8%
- Cc1nc(NCc2ccco2)nc2c1C(=O)CC(C)C2 (stereo unspecified)
 : i, 0.31, -7.0%
- COCCN1Cc2cccc(C(=O)NCc3ccc4c(c3)OCO4)c2C1=O
 : i, 0.25, 1.9%
- Cn1c(=O)cc(NCc2ccccc2)[nH]c1=O
 : i, -0.31, 0.6%
- CN(c1cc(=O)n2ccccc2n1)C1CCCCC1
 : i, -0.06, -5.0%
- CNc1oc(C)nc1S(=O)(=O)c1ccc(C)cc1
 : i, 1.46, -5.9%
- O=C1c2ccccc2C(Nc2ccc(S(=O)(=O)N3CCCCCC3)cc2)N1Cc1ccco1 (stereo unspecified)
 : i, -0.33, -3.2%
- Cc1cc(NC(=O)c2ccccc2Oc2ccccc2)no1
 : i, -0.98, 0.2%
- Cn1cccc1-c1nc2ccc(NC(=O)c3ccco3)cc2[nH]1
 : i, -0.6, -9.2%
- COc1ccc(CCNC(=O)CSc2nc3ccccc3o2)cc1
 : i, /, -0.5%
- COc1nc(NCCc2ccc(OC)c(OC)c2)nc(OC)n1
 : i, 0.48, -3.9%
- N#C/C(=C(/O)CN1CCOCC1)c1nc(-c2ccccc2)cs1
 : i, -0.3, 1.5%
- Cc1cccn2c(=O)c3cc(C(=O)NC4CCCC4)c(=N)n(C4CCCC4)c3nc12
 : i, 6.46, -5.2%
- CN(C)C(=O)CSc1nc2ccccc2n1CC(=O)N1CCN(c2ccccc2)CC1
 : i, /, -1.2%
- COc1ccc(NC(=O)C2CC(=O)OC23CCCCC3)cc1 (stereo unspecified)
 : i, /, 2.7%
- COc1ccc(-c2c(C#N)c(N)nc3c2c(=O)n(C)c(=O)n3C)cc1Cl
 : i, /, 3.4%
- O=C(CN1C(=O)c2ccccc2S1(=O)=O)N1CCN(c2ccc(F)cc2)CC1
 : i, 1.24, 5.9%
- CCOC(=O)COc1ccc2nsnc2c1
 : i, -0.38, 4.1%
- COc1cc(-c2nnc(SCC(=O)c3cc(C)n(CC4CCCO4)c3C)o2)cc(OC)c1OC (stereo unspecified)
 : i, -0.52, 4.2%
- O=C(COc1ccc(Cl)cc1)NCc1nnc(SCC(=O)NCCc2ccccc2)o1
 : i, 0.65, -5.0%
- C=C(C)C(C)(C#CCN1CCCC1)OC(C)=O (stereo unspecified)
 : i, 2.44, 10.9%
- N#CCSc1nc2ccccc2c(=O)n1CCC(=O)NC1CCCCC1
 : i, 0.93, -7.4%
- Cc1cc(C(=O)CSc2ccc(F)cc2)cc(C)c1OC(=S)N(C)C
 : i, /, 2.7%
- Cc1c(Br)cc(C(=O)N2CCN(CCO)CC2)c(C)c1C
 : i, -1.46, 4.1%
- COc1ccccc1CNC(=O)c1cc2c(=O)n(C)c3ccccc3c2n1C
 : i, 0.32, -2.8%
- CC(C)(C)SCCNC(=O)COc1ccccc1
 : i, 0.38, 7.1%
- CCOc1ccc(NC(=O)Nc2cc(C)ccc2OC)cc1
 : i, -0.15, 0.2%
- Cc1ccc(C(C(=O)NC2CCCCC2)N(Cc2cccnc2)C(=O)C2COc3ccccc3O2)o1 (stereo unspecified)
 : i, 0.94, 8.4%
- COC(=O)C1=C(N)Oc2cc(C)[nH]c(=O)c2C1c1cc(OC)c(OC)c(OC)c1 (stereo unspecified)
 : i, 0.03, -1.0%
- COCCN1CCn2c(nc3cc(NC(=O)NC4CCCCC4)ccc32)C1
 : i, -0.41, 6.7%
- CCn1c(/C=N/c2nc3ccccc3n2C)nc2ccccc21
 : i, /, -1.4%
- CCN(C1CCS(=O)(=O)C1)S(=O)(=O)c1cccs1 (stereo unspecified)
 : i, -0.49, 6.9%
- CCOC(=O)CN1CC23C=CC(O2)C(C(=O)Nc2ccc(OCC)cc2)C3C1=O (stereo unspecified)
 : i, 0.61, 5.9%
- COc1ccc(NC(=O)C2CCCCN2N)cc1OC (stereo unspecified)
 : i, /, 1.2%
- CCN1CCN(C(=O)c2ccc(Cl)c(S(=O)(=O)N3CCOCC3)c2)CC1
 : i, /, 2.8%
- Cc1ccc(-c2ccc(CCC(=O)O)n2NC(=O)c2cccs2)cc1
 : i, 0.39, 6.1%

Four compounds from above, reduced to Hsc70 ATP site and MT1-MMP reporter:
Molecule	Hsc70 ATP site	MT1-MMP reporter
COC(=O)C1=C(N)Oc2cc(C)[nH]c(=O)c2C1c1cc(OC)c(OC)c(OC)c1 (stereo unspecified)	-1.0%	i
COCCN1CCn2c(nc3cc(NC(=O)NC4CCCCC4)ccc32)C1	6.7%	i
CCn1c(/C=N/c2nc3ccccc3n2C)nc2ccccc21	-1.4%	i
CCN(C1CCS(=O)(=O)C1)S(=O)(=O)c1cccs1 (stereo unspecified)	6.9%	i

Additional structures:
Below each compound: MT1-MMP reporter, WNV protease inh, Hsc70 ATP site
- CCCCCCNC(=O)CCNC(=O)c1cc(OC)c(OC)c(OC)c1
 : i, 0.1, -4.2%
- Cn1nnnc1SCC(=O)c1cccs1
 : i, 0.03, 5.6%
- CN1CCCN(CC(O)COCc2cccs2)CC1 (stereo unspecified)
 : i, -0.58, -2.2%
- CCN1CCN(C(=O)CCc2ccc(S(=O)(=O)NCCc3ccccc3)cc2)CC1
 : i, /, -3.5%
- CC(C)C(NC(=O)OCc1ccccc1)C(=O)NCC(=O)OC(C)(C)C (stereo unspecified)
 : i, -1.61, 3.9%
- CCC(=O)NCCSc1c[nH]c2ccccc12
 : i, 1.42, -3.0%
- CC(C(=O)O)N1C(=O)CSC1=S (stereo unspecified)
 : i, 0.24, 3.8%
- COc1ccc(N2CCCn3c2nc2c3c(=O)n(CCc3ccccc3)c(=O)n2C)cc1
 : i, -0.59, -0.6%
- Cc1cc(C)c2cc(C(c3nnnn3CC3CCCO3)N3CCN4CCCC4C3)c(=O)[nH]c2c1 (stereo unspecified)
 : i, -0.87, 5.0%
- CC(=O)CCN1CCOCC1
 : i, /, -0.2%
- CCOC(=O)c1ccc(NS(=O)(=O)c2cnc[nH]2)cc1
 : i, -1.29, 1.8%
- O=C(CCC(=O)N(CC(=O)NC1CCCC1)Cc1ccc2c(c1)OCO2)Nc1ccccn1
 : i, -0.44, -7.4%
- CCCN(CCO)Cc1cccc(Oc2ccccc2)c1
 : i, -0.42, 3.8%

Some of the compounds tested; count on the stated rates, not on these rows.
